Screens deposited in PubChem BioAssay by National Center for Advancing Translational Sciences (NCATS).
SARS PLP yeast – qHTS of Yeast-based Assay for SARS-CoV PLP. 330,000 compounds, 0.19% hits. Potency, µM (titrated, usually from 32.9 µM), inactives show at the highest dose activity, positive = growth rescue. S. cerevisiae expressing SARS-CoV PLpro, growth rescue; control for the full effect not named in the record. AID 485353, 2010; note: 0% is about no effect; nearly all actives have a fitted effect of over 55% in size; growth read by luminescence after 48 h
2A StopGo – High Throughput Screening for Foot and Mouth Disease Virus Antivirals; 410,000 compounds, 1.2% hits; AID 1159524, 2015; human cells with a luciferase reporter of 2A StopGo recoding; control for the full effect not named in the record; Potency, µM (titrated, usually from 57.9 µM), for inactives: at the top dose signal change, negative = less light; active = well fitted falling curve with a large enough effect; inconclusive = small, poorly fitted or top-dose-only effect; inactive = no such curve, though single readings can be large or run the other way; tested in HEK293T cells; note: % is set by controls: 0 for no effect and ±100 for the full control effect; nearly all actives have a fitted effect of over 45% in size; luciferase light after 4 h
Cruzain noTriton – qHTS Assay for Promiscuous and Specific Inhibitors of Cruzain (without detergent); AID 1476, 2009; Cruzipain (Trypanosoma cruzi), P25779; Potency, µM, for the others: max response, negative = inhibition, actives largely listed as inhibitors; purified cruzain, Z-FR-AMC fluorescence, no detergent; 200,000 compounds, 2.3% hits; active = well fitted curve in the direction sought with a large enough effect; inconclusive = small, poorly fitted or top-dose-only effect, or another doubt; inactive = no such curve, though single readings can be large; an effect the other way counts as inactive or inconclusive;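 note: plate controls were enzyme without inhibitor for no effect and buffer without enzyme for full effect; nearly all actives have a fitted effect of over 40% in size; top concentration of the series not given in the record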
Target sequence (P25779 123-467 limits assumed): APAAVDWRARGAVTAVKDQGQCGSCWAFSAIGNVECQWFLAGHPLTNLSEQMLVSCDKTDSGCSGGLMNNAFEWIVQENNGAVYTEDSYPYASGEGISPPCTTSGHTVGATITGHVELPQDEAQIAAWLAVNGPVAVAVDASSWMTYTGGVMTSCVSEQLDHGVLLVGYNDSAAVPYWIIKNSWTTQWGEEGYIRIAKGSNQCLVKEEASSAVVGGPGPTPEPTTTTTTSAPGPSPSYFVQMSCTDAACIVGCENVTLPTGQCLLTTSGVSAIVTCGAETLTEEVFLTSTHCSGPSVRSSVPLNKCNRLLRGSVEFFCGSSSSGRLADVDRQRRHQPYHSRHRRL
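Detergent-free condition (0.00005% Triton X-100) in acetate buffer pH 5.5 with DTT. 1.5 nM enzyme and compound were pre-mixed 15 min, then 2 uM Z-FR-AMC substrate added; reaction progress from fluorescence change between first and third reads (60 s).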
RE007 growth inh – qHTS Assay for Inhibitors of the HIV-1 protein Vpr | S. pombe RE007 Vpr strain, BacTiter-Glo ATP luminescence, 24 h; control for the full effect not named in the record | Potency, µM (titrated, usually from 92.2 µM), for the others: at the highest dose activity change, negative = less growth | 360,000 compounds, 0.21% hits | AID 651644, 2012; active = well fitted falling curve with a large enough effect; inconclusive = small, poorly fitted or top-dose-only effect; inactive = no such curve, though single readings can be large or run the other way;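 note: % is set by controls: 0 for no effect and ±100 for the full control effect; nearly all actives have a fitted effect of over 50% in size; the assay follows cell death caused by Vpr and the record does not say whether a fall means rescue or toxicity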
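Fission yeast strain RE007, carrying one chromosomally integrated HIV-1 vpr copy, was seeded at OD 0.01 in PMG+AL medium with 23 nL pinned compound. After 24 h at 30 °C and 99% humidity, viability was read by BacTiter-Glo luminescence.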
Cruzain Triton – qHTS Assay for Promiscuous and Specific Inhibitors of Cruzain (with detergent) | Cruzipain (Trypanosoma cruzi), P25779 | purified cruzain, Z-FR-AMC fluorescence, 0.01% Triton | Potency, µM, for inactives: max response, negative = inhibition, usual class: inhibitors | AID 1478, 2009 | 200,000 compounds, 0.43% hits; active = well fitted curve in the direction sought with a large enough effect; inconclusive = small, poorly fitted or top-dose-only effect, or another doubt; inactive = no such curve, though single readings can be large; an effect the other way counts as inactive or inconclusive;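 note: plate controls were neutral wells for no effect and buffer without enzyme for full effect; nearly all actives have a fitted effect of over 40% in size; top concentration of the series not given in the record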
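Sodium acetate buffer (100 mM, pH 5.5) containing 5 mM DTT and 0.01% Triton X-100 hosted 1.5 nM cruzain and test compound for 15 min at room temperature. Cleavage of 2 uM Z-FR-AMC was then tracked by fluorescence.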
NS1 inh – qHTS Assay for Inhibitors of Influenza NS1 Protein Function | 270,000 compounds, 0.4% hits | AID 2326, 2010 | S. cerevisiae slowed by influenza A NS1, growth recovery by OD600 | Potency, µM (titrated, usually from 46.1 µM), without a hit: at the highest dose activity, positive = more growth; note: actives are rising curves; nearly all actives have a fitted effect of over 50% in size
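Growth recovery, yeast-based: influenza A NS1 expressed in S. cerevisiae causes slow growth, and suppressors are detected by OD600. The parent strain without NS1 is used as positive control.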
MARV entry inh – qHTS for inhibitors of binding or entry into cells for Marburg Virus. Marburg virus pseudotyped entry inhibition, cell reporter; control for the full effect not named in the record; about a third of the inactives were read at about 46 µM. Potency, µM (titrated, usually from 37.8 µM), without a hit: top-dose activity change, negative = inhibition, most hits filed as inhibitors. 300,000 compounds, 1.8% hits. AID 540276, 2011; active = well fitted inhibition curve with a large enough effect; inconclusive = small, poorly fitted or top-dose-only effect, or effect the other way; inactive = flat fitted curve, though single readings scatter; tested in HEK293 cells; about a fifth of its hits are not listed in these tables; note: % is set by controls: 0 for no effect and ±100 for the full control effect; luciferase read-out
LASV entry inh – qHTS for Inhibitors of binding or entry into cells for Lassa Virus | Lassa virus pseudotype entry inhibition, cell reporter; control for the full effect not named in the record | Potency, µM (titrated, usually from 37.9 µM), inactives show top-dose activity change, negative = inhibition, actives largely listed as inhibitors | 300,000 compounds, 1.2% hits; active means well fitted inhibition curve with a large enough effect; inconclusive means small, poorly fitted or top-dose-only effect, or effect the other way; inactive means flat fitted curve, though single readings scatter; tested in HEK293 cells; note: % is set by controls: 0 for no effect and ±100 for the full control effect; nearly all actives have a fitted effect of over 50% in size; luciferase read-out
Numbers without * were called inactive; ? = inconclusive; . = not tested or not shown; & = joins results of further samples; [ ] = another dose, or the depositor's remark. Unless noted, calls come from the whole dose curve; as a rule, active means well fitted rising curve with a large enough effect; inconclusive means small, poorly fitted or top-dose-only effect; inactive means no such curve, though single readings can be large or run the other way. Potency is the fitted concentration of half-maximal effect.

SMILES | SARS PLP yeast | 2A StopGo | Cruzain noTriton | RE007 growth inh | Cruzain Triton | NS1 inh | MARV entry inh | LASV entry inh
COc1cc(C(=O)OCC(=O)N2c3ccccc3NC(=O)C2(C)C)ccc1OCC(C)C | 2.5% | ? | . | 0.3% | . | . | ? | ?
CCOc1ncccc1C(=O)OCC(=O)Nc1cccc(S(N)(=O)=O)c1 | 6.1% | 12.7% | . | 2.5% | . | . | ? | ?
COc1ccccc1C(=O)N/C(=C\c1ccccc1)C(=O)NC(Cc1ccccc1)C(=O)O (configuration not stated) | 0.4% | -6.5% | . | -2.5% | . | 27.1% | -5.6%[46.1 µM] | 0.0%[46.1 µM]
Cc1cccc(N2CCN(C(=O)C3CCN(S(=O)(=O)c4cn(C)cn4)CC3)CC2)c1C | . | -17.6% | ? | . | 1.4% | . | . | -9.4%[46.1 µM]
O=C(COC(=O)CSc1ccc2ccccc2c1Br)NC1CC1 | -1.8% | 1.8% | . | -8.9% | . | . | 9.8%[46.1 µM] | 18.4%[46.1 µM]
Cc1sc2ncnc(OCC(=O)c3ccc(S(=O)(=O)N4CCCC4)cc3)c2c1C | -15.0% | ? | -28.4% | 9.8% | -1.2% | -11.0% | ? | -21.7%
CC(C)(C)c1cc(=O)n(-c2ccccc2)[nH]1 | -81.8% | 12.2% | -2.0% | -29.5% | -3.3% | -52.5% | ? | ?
COc1ccc(N(CC(=O)Nc2cccc3ccccc23)S(C)(=O)=O)cc1 | 1.4% | 2.8% | . | 10.4% | . | 19.6% | . | .
CN1C2CCC1/C(=C/c1cccn1C)C(=O)/C2=C\c1cccn1C | 4.8% | ? | -23.6% | -16.9% | -26.5% | 14.3% | ? | -28.6%
COc1cccc(C(=O)N(C)C(C)c2nc3ccccc3s2)c1 (configuration not stated) | -27.3% | 1.8% | . | 26.9% | . | -0.9% | 0.5%[46.1 µM] | -15.8%[46.1 µM]
O=C(NCc1ccco1)[C@@H]1CSC2c3ccccc3C(=O)N21 (some centres not stated) | 3.2% | 4.6% | -0.6% | -2.5% | -4.4% | 22.6% | -13.5% | 17.5%
Cc1cccc2cc(CN(Cc3cccs3)Cc3nnnn3Cc3ccccc3)c(=O)[nH]c12 | 0.8% | . | 0.1% | 6.7% | -0.7% | ? | 16.4µM* | ?
CSCC[C@H](NC(=O)C1CCC(CNC(=O)[C@@H]2CCCN2C(=O)OC(C)(C)C)CC1)C(=O)O (some centres not stated) | -1.0% | -21.4% | . | -4.9% | . | 3.1% | . | .
Cc1ccc(Cl)cc1N1CCN(C(=O)Cn2ccc3ccccc3c2=O)CC1 | 3.0% | ? | -8.4% | -11.8% | -7.5% | 6.8% | ? | -19.4%
O=S(=O)(NC(=S)c1ccccc1)c1ccccc1 | . | 6.3% | . | -5.7% | . | . | 1.2%[46.1 µM] | 10.8%[46.1 µM]
CC/C(=N\NC(=O)CSCc1ccc(Cl)cc1)c1ccc2c(c1)OCCO2 | -1.3% | -17.7% | -0.4% | -4.9% | -0.1% | 1.9% | -11.3% | -21.9%
CCOc1cc(/C=N/NC(=O)c2ccc(N(C)S(=O)(=O)c3ccccc3)cc2)ccc1OC | -0.3% | ? | . | 9.9% | . | -20.4% | -1.8%[46.1 µM] | .
NC(=O)CCC1NC(=S)N(Cc2ccccc2)C1=O (configuration not stated) | 1.0% | -13.8% | . | 4.4% | . | 5.4% | 7.8% | ?
CCC(=O)N1CCc2cc(Br)cc(S(=O)(=O)N3CCC(C(=O)NC(C)(C)C)CC3)c21 | -0.9% | -1.8%&-13.2% | 3.5% | 1.8% | -0.7% | -4.1% | 3.9%&6.3%[46.1 µM] | -28.1%&-20.9%[46.1 µM]
OC(C#CCCN1CCCCC1)(c1ccccc1)c1ccccc1 | 0.6% | -4.4% | . | -12.6% | . | 3.5% | -18.7%[14.2 µM] | -2.1%
COc1ccc(CN(C)C(=O)c2cc(-c3ccc(C)cc3C)nc3ccccc23)c(OC)c1OC | -6.5% | -16.1% | . | 18.3% | . | -3.0% | ? | ?
COc1cc(C(=S)N2CCC(Cc3ccccc3)CC2)ccc1OCC(N)=O | -1.5% | -3.2% | . | -3.9% | . | -2.7% | 8.6%[46.1 µM] | -14.4%[46.1 µM]
Cc1c2cn[nH]c(=O)c2c(C)n1-c1ccccc1 | -0.6% | 30.5%[activator] | . | 8.1% | . | -0.3% | 6.5%[46.1 µM] | 1.2%[46.1 µM]
COC(=O)c1ccc(N2CCC(C)CC2)c(N)c1 | -0.5% | 60.7%[activator] | -20.4% | -19.0% | -5.9% | -8.8% | ? | -5.5%
c1ccc(-c2cc(-c3ccncc3)nc3ccc4ccccc4c23)cc1 | -26.2% | ? | -1.5% | -17.0% | -5.7% | 15.4% | ? | -11.2%
Cc1cccc(NC(=O)CSc2nncn2C)c1 | . | 0.5% | 1.7% | . | 0.6% | . | -4.5%[46.1 µM] | 20.7%[46.1 µM]
COc1ccc(-c2ccc(=O)n(CC(=O)Nc3ccc(Br)cc3F)n2)cc1 | . | -12.8% | -4.9% | . | 1.1% | . | . | -5.5%[46.1 µM]
COc1ccccc1N(CC(=O)NC(C)(C)C)C(=O)Cn1nnc(-c2ccc(C)o2)n1 | 9.8% | -6.4% | 13.6% | 2.2% | 0.5% | -2.0% | -19.7% | ?
CC/C(=N\Nc1ccnc2cc(Cl)ccc12)c1ccc(O)cc1 | -8.1% | -3.0% | . | 3.4% | . | -40.3% | ? | ?
CC1CN(c2ccc(S(=O)(=O)N3CCOCC3)cn2)CC(C)O1 (configuration not stated) | 4.5% | 16.9% | 0.9% | 11.1% | 0.0% | -9.3% | -10.1% | -14.5%
NCCOc1cnn(-c2ccccc2Cl)c(=O)c1Cl | 26.5% | -22.9% | -1.7% | 4.4% | -2.5% | 0.9% | 2.5% | -1.3%
COc1ccccc1C1(CC(=O)N2CCOCC2)CCOC(C(C)C)C1 (configuration not stated) | -4.8% | -24.5% | 12.3% | -9.2% | 1.1% | 5.2% | -1.5% | 9.0%
Brc1cccc(Cn2c(-c3cncs3)nc3ccccc32)c1 | 4.1% | -26.7% | 4.0% | -0.7% | -8.5% | -4.9% | 20.0% | 14.1%
COc1ccc(C2CC(c3ccccc3O)=NN2c2ccccc2)cc1 (configuration not stated) | . | -6.8% | . | 12.4% | . | . | -6.7%[46.1 µM] | 5.0%
CC(C)c1c(C(=O)N/N=C/c2ccco2)nnn1-c1nonc1N | -1.1% | -0.1% | . | 1.2% | . | 8.2% | . | .
COc1c(N2CCN(C(=S)NCc3ccccc3)C(C)C2)c(F)cc2c(=O)c(C(=O)O)cn(C3CC3)c12 (configuration not stated) | 0.0% | -22.5% | ? | -2.6% | -7.5% | 19.7% | -23.0% | 11.1%
Cc1cc(C)n(-c2nc3c(c(=O)[nH]c(=O)n3C)n2CC(O)COc2ccccc2C)n1 (configuration not stated) | 2.8% | -9.0% | -3.6% | -1.7% | 0.6% | -3.5% | -7.4% | -20.8%
CCOc1ccc(C(=O)Nc2ccc(C(=O)OCc3cc(=O)n4ccsc4n3)cc2)cc1 | . | -6.2% | -0.7% | . | 0.1% | . | . | -17.1%[46.1 µM]
Cc1ccc(S(=O)(=O)N2CCC(=O)N(CCOCc3ccccc3C)CC2)cc1 | 8.1% | -18.7% | 22.9% | 0.9% | -0.7% | -32.4% | -26.4% | ?
CCN(CC(=O)Nc1c(F)cccc1F)C(=O)c1cc(C)nc2ccccc12 | -0.2% | -2.4% | . | 7.4% | . | . | 12.4% | 4.0%
CCOc1cc(N2CCOCC2)c(OCC)cc1NC(=O)c1ccccc1C | 0.3% | -18.9% | . | -15.9% | . | 0.2% | -20.2%[46.1 µM] | .
COc1ccc2cc3cc(C(=O)NCC4CCCO4)oc3nc2c1 (configuration not stated) | -4.3% | -15.9% | ? | -4.4% | -10.6% | -12.2% | 11.7% | ?
Cc1nn(C)c(C)c1S(=O)(=O)NCc1cccs1 | 5.3% | 51.1%[activator] | -8.9% | -0.6% | -1.4% | 4.7% | 23.9% | 2.3%
CCOC(=O)c1c(C)[nH]c(C(=O)COC(=O)CCC2CCCC2)c1C | -0.2% | 19.6% | 15.8µM* | -4.4% | 8.1% | -1.4% | 15.9% | -2.5%
COc1ccc(S(=O)(=O)N2CCN(Cc3cccc(Cl)c3)CC2)cc1 | -3.4% | -23.0% | -0.2% | -18.7% | 1.5% | -11.3% | -0.6% | -28.2%
COc1ccc(CNC(=O)C(=O)NCC2CCCN2S(=O)(=O)c2cccs2)cc1 (configuration not stated) | -0.4% | 2.8% | . | -14.1% | . | . | 9.2% | -3.7%
CC(NS(=O)(=O)c1cccc(Cl)c1)C(=O)N(C)C1CCN(C)CC1 (configuration not stated) | -1.2% | 8.2% | . | 4.2% | . | -7.8% | . | .
CCOc1ccccc1NC(=O)C1CCCN(c2c(CC)c(C)nc3ncnn23)C1 (configuration not stated) | 4.0% | ? | . | -5.7% | . | -6.7% | ? | ?
Cc1cccc(OCCNC(=S)NC(=O)c2cncc(Br)c2)c1 | -4.2% | -26.1% | . | 4.7% | . | 13.1% | 5.4% | -1.7%
CCSc1nc2cc(OC)c(OC)cc2c(=O)n1CC | 6.6% | 0.0% | -4.3% | -24.2% | 0.0% | -37.6% | 0.3% | -21.7%
CCc1ccccc1NC(=O)C1CCN(S(=O)(=O)c2ccc3[nH]c(=O)ccc3c2)CC1 | . | -13.9% | 9.3% | . | 0.3% | . | . | 2.6%[46.1 µM]
Cc1ccc2c(C)c(C(=O)N3CCN(c4ccncc4)CC3)oc2c1C | . | -29.3% | . | -4.2% | . | . | ? | ?
Cc1c[n+](CC(=O)c2ccccc2)c(C)cn1 | 4.6% | -1.6% | . | -10.8% | . | ? | 18.7%[46.1 µM] | 3.1%[46.1 µM]

Compounds as they come; about 4.7% have a hit in one of these screens.
